Menin MLL FP FL: inhibitors of human menin-MLL interaction, wild-type MLL peptide. Fluorescence polarization, fluorescein-MLL peptide displacement from menin. FP activity change, % at 61.4 µM. 290,000 tested, under 10 active. AID 1766; inconclusive = falling polarisation curve, or a change in total fluorescence; inactive = total fluorescence flat and polarisation flat or rising; no compound was filed as active; the % refers to the polarisation; negative = inhibition;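 further: % of control where 0% means no effect; inhibitors lower the polarisation; unlabelled MLL peptide was the positive control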
Sfp inh: inhibitors of Bacillus subtilis Sfp phosphopantetheinyl transferase. Potency, µM, for inactives: max response, negative = inhibition, hits mostly inhibitors. AID 1490. Biochemical Sfp PPTase activity, qHTS. Q9F4F7. 3.5% of 310,000 active; active means well fitted inhibition curve with a large enough effect; inconclusive means small, poorly fitted or top-dose-only effect, or another doubt; inactive means no such curve, though single readings can be large or run the other way;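 further: the enzyme is Sfp with the accession as filed and its product quenches rhodamine fluorescence; potency means the concentration at half of the fitted maximal effect; 0% = enzyme reaction without inhibitor and -100% = no enzyme wells; top concentration of the series not given in the record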
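After 15 min at room temperature with compound, 15 nM Sfp received 5 uM rhodamine-CoA plus 12.5 uM BHQ-2-ybbR (50 mM Hepes pH 7.6, 10 mM MgCl2). Rate came from the fluorescence difference over 30 min, ex 525/em 598 nm.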
Starred values were filed as active, the others as inactive; ? = inconclusive; & = joins results of further samples; [ ] = remark or other dose.

| Menin MLL FP FL | Sfp inh | Molecule |
| --- | --- | --- |
| ? | 16% | OC[C@H]1O[C@@H](O[C@@H]2[C@@H](CO)O[C@](O)(CO)[C@H]2O)[C@H](O)[C@@H](O)[C@H]1O |
| -3.1 | -13% | COc1cc(OC)c2c(-c3ccccc3)cc(=O)oc2c1C(CC(=O)N1CCCC1)c1ccc(N(C)C)cc1 (stereo unspecified) |
| -0.7[11.7 µM] | 25% | CC(C)CO/N=C1/C[C@@H](O)[C@@H](O)[C@@H]2[C@@H]3C(=O)N(c4cccc(Oc5ccccc5)c4)C(=O)[C@H]3CC[C@H]12 |
| 0.0 | -11% | O=C(c1cnccn1)N1CCC2(CC1)CN(c1ccccc1)C2 |
| 3.7 | 12% | COc1ccc(C2/C=C\CN(C(=O)C3CC3)C(Cc3ccccc3)C(=O)N2Cc2ccc(F)cc2)cc1 (stereo unspecified) |
| -2.0 | -4% | O=C(Nc1ccc(Cl)cc1)OCCN1CCN(Cc2ccccc2)CCC1=O |
| -0.1[11.7 µM] | -4% | CO/N=C\[C@@H](C)[C@H](OCc1ccccc1)C(C)C |
| 5.4 | 6% | O=c1ccn(C2OC(COP(=O)(O)OC3C(CO)OC(n4ccc(=O)[nH]c4=O)C3O)C(O)C2O)c(=O)[nH]1 (stereo unspecified) |
| -12 | 1% | N[C@@H](C(=O)O)c1ccc(P(=O)(O)O)cc1 |
| ? | -8% | COC(=O)CCC(=O)OC1(C)C(=O)C2=CN(Cc3ccco3)C(c3ccc(OC)cc3)=CC2=C(Br)C1=O (stereo unspecified) |

Sorted by length of the SMILES (ascending): three of the compounds above
| Menin MLL FP FL | Sfp inh | Molecule |
| --- | --- | --- |
| -2.0 | -4% | O=C(Nc1ccc(Cl)cc1)OCCN1CCN(Cc2ccccc2)CCC1=O |
| ? | -8% | COC(=O)CCC(=O)OC1(C)C(=O)C2=CN(Cc3ccco3)C(c3ccc(OC)cc3)=CC2=C(Br)C1=O (stereo unspecified) |
| 5.4 | 6% | O=c1ccn(C2OC(COP(=O)(O)OC3C(CO)OC(n4ccc(=O)[nH]c4=O)C3O)C(O)C2O)c(=O)[nH]1 (stereo unspecified) |

The list continues:
| Menin MLL FP FL | Sfp inh | Molecule |
| --- | --- | --- |
| -0.1 | 22% | CS(=O)(=O)N1CCC2(CC1)CN(Cc1ccc(C#N)cc1)C2 |
| 7.1&168 | -7% | NS(=O)(=O)c1cccc2c1c([N+](=O)[O-])cc1[nH]c(=O)c(=O)[nH]c12 |
| -0.6 | 3% | COc1cccc(/C=C/C(=O)O)c1C(C)C |
| -1.5 | 4% | CN(C)C=Nc1c(I)cc(I)c(CCC(=O)O)c1I |
| 1.7 | -12% | Cn1cc(-c2nc3cnc(Oc4cccc(Cl)c4)nc3n(C3CC3)c2=O)c2ccccc21 |
| -3.3&0.8[11.7 µM] | 7%&2% | COC(=O)[C@@H]1CC[C@H](C)[C@@H](c2ccc(C)cc2)N1C(=O)c1ccc(/C=N\O[C@@H](C)c2cn([C@H](CO)Cc3ccccc3)nn2)cc1 |
| 4.5&0.0 | 56µM* | N[C@@H](CS(=O)O)C(=O)O |
| 7.4 | 8%&0% | CCCCC[C@H](O)/C=C/[C@@H]1[C@@H](CC(=O)CCCCC(=O)O)[C@@H](O)C[C@H]1O |
| -23 | 8% | Cc1c(-c2ccccc2)oc2cc(O)ccc2c1=O |
| 2.3 | -5% | COc1ccc2[nH]cc(CCNc3ncnc4ccc(-c5ccc(C(=O)N(C)C)cc5)cc34)c2c1 |

Fetched by compound from the list above, 3 records:
| Menin MLL FP FL | Sfp inh | Molecule |
| --- | --- | --- |
| -23 | 8% | Cc1c(-c2ccccc2)oc2cc(O)ccc2c1=O |
| -3.3&0.8[11.7 µM] | 7%&2% | COC(=O)[C@@H]1CC[C@H](C)[C@@H](c2ccc(C)cc2)N1C(=O)c1ccc(/C=N\O[C@@H](C)c2cn([C@H](CO)Cc3ccccc3)nn2)cc1 |
| 1.7 | -12% | Cn1cc(-c2nc3cnc(Oc4cccc(Cl)c4)nc3n(C3CC3)c2=O)c2ccccc21 |

Additional structures
| Menin MLL FP FL | Sfp inh | Molecule |
| --- | --- | --- |
| -0.5[11.7 µM] | 23% | C[C@@H](c1ccccc1)N1C(=O)[C@H]2[C@H]3[C@H](O)[C@H](O)C/C(=N/OCc4ccccc4)[C@H]3CC[C@@H]2C1=O |
| 2.5[94.6 µM] | -10% | Brc1ccc(C2=N[C@@H](Cc3ccccc3)CO2)cc1 |
| -0.5 | -9% | CN(C)c1ncnc2ccc(-c3ccccc3C(F)(F)F)cc12 |
| -1.0 | 10% | C=C(C)C1CC[C@]2(CO)CC[C@@]3(C)[C@H](CCC4[C@@]5(C)CCC(O)C(C)(C)C5CC[C@@]43C)C12 (stereo partly specified) |
| -8.1[24.8 µM] | 2% | CC[C@H](C(=O)[C@H](C)[C@H](O)[C@H](C)CCc1ccc(C)c(O)c1C(=O)O)[C@H]1O[C@](CC)([C@@H]2CC[C@@](O)(CC)[C@H](C)O2)C[C@H]1C |
| 0.1 | -5% | O=c1c(-c2cccc(F)c2)nc2cncnc2n1Cc1ccccc1Cl |
| -1.4 | 22µM* | CCCn1c(-c2ccc(F)cc2)nc2c(N3CCCN(Cc4ccccc4)CC3)nc(C)nc21 |
| 2.8 | 47%[activator] | COC(=O)C1=C(C)NC(C)=C(C(=O)OC(C)(C)CN(C)CCC(c2ccccc2)c2ccccc2)C1c1cccc([N+](=O)[O-])c1 (stereo unspecified) |
| 2.1 | 1% | CC(C)CCNC(=O)C(CC(C)C)NC(=O)C1OC1C(=O)O (stereo unspecified) |
| 1.9 | 4% | COc1ccc2cc1Oc1ccc(cc1)CC1c3c(cc4c(c3Oc3cc5c(cc3OC)CCN(C)C5C2)OCO4)CCN1C (stereo unspecified) |
| 4.6 | -26% | C=C(C(C)=O)C(O)c1ccc([N+](=O)[O-])cc1 (stereo unspecified) |
| -0.1[11.7 µM] | ? | C=CCN1c2ccccc2[C@]23C[C@@H](C(=O)OC)N(C(=O)COCc4ccccc4)C2=NC(C(=O)OC)=C(C(=O)OC)[C@H]13 |
| 4.2&-0.9[11.7 µM] | ? | CC(=O)OCC1OC(C#CCCCc2ccccc2)C=CC1OC(C)=O (stereo unspecified) |
| 0.0 | -4% | CC(C)CN1CC2(CCN(C(=O)c3ccco3)CC2)C1 |
| -4.8[24.8 µM] | 15% | O=c1[nH]c(=O)n([C@@H]2C[C@H](O)[C@H](CO)O2)cc1I |
| -5.5 | 11% | CN1C(=O)CN2CCc3ccccc3C2c2cc(Cl)ccc21 (stereo unspecified) |
| -3.9 | -3% | CCCCCCCC1=CC2=C(Cl)C(=O)C(C)(OC(C)=O)C(=O)C2=CN1C (stereo unspecified) |
| ? | ? | CC(C)CCC[C@@H](C)[C@@H]1CC[C@H]2C3=CC=C4CC(O)CC[C@]4(C)[C@H]3CC[C@@]21C (stereo partly specified) |
| 3.7 | 20% | COc1ccc(C(=O)N2CCC[C@@]3(CCN(c4ncccn4)C3)C2)cc1 |
| -12 | 20% | COC(=O)C/C=C/[C@@H](C)[C@H](NC(=O)OCC(Cl)(Cl)Cl)c1cccc(OC)c1 |
| 0.8 | -15% | CCCCCCCCC(C)O (stereo unspecified) |
| 1.1[11.7 µM] | 0% | COC(=O)C1=C(C(=O)OC)[C@@H]2N(C)c3ccc(OC)cc3[C@@]23C[C@@H](C(=O)OC)N(C(C)=O)C3=N1 |
| -6.4 | -14% | CC[C@H](C)[C@H](NC(=O)[C@H](Cc1ccc(O)cc1)NC(=O)[C@H](Cc1cnc[nH]1)NC(=O)[C@H](CCCNC(=N)N)NC(=O)[C@H](CC(C)C)NC(=O)[C@H](C)NC(=O)[C@H](CO)NC(=O)[C@H](Cc1ccc(O)cc1)NC(=O)[C@H](Cc1ccc(O)cc1)NC(=O)[C@H](CCCNC(=N)N)NC(=O)[C@H](C)NC(=O)[C@H](CCSC)NC(=O)[C@H](CC(=O)O)NC(=O)[C@H](CCC(=O)O)NC(=O)[C@H](C)NC(=O)[C@@H]1CCCN1C(=O)[C@H](C)NC(=O)[C@H](CC(=O)O)NC(=O)[C@H](CCC(=O)O)NC(=O)CNC(=O)[C@@H]1CCCN1C(=O)[C@H](CC(N)=O)NC(=O)[C@H](CC(=O)O)NC(=O)[C@@H]1CCCN1C(=O)[C@H](CCCCN)NC(=O)[C@H](CO)NC(=O)[C@@H]1CCCN1C(=O)[C@@H](N)Cc1ccc(O)cc1)C(=O)N[C@@H](CC(N)=O)C(=O)N[C@@H](CC(C)C)C(=O)N[C@H](C(=O)N[C@H](C(=O)N[C@@H](CCCNC(=N)N)C(=O)N[C@@H](CCC(N)=O)C(=O)N[C@@H](CCCNC(=N)N)C(=O)N[C@@H](Cc1ccc(O)cc1)C(N)=O)[C@@H](C)O)[C@@H](C)CC |
| 1.8 | -5% | COc1cccc([C@@H]2Oc3ccc(OC)cc3C[C@H]2OC(=O)NS(=O)(=O)c2ccc(C)cc2)c1 |
| -1.7 | 15% | CNc1ncnc2ccc(-c3ccc4c(c3)OCO4)cc12 |
| 0.5 | -10% | C=C1CC2C3C=C(C)C4=CC(=O)CCC4(C)C3CCC2(C)[C@@]1(OC(C)=O)C(C)=O (stereo partly specified) |
| -0.2 | ? | CC[C@H](C)[C@H](NC(=O)[C@H](CC(C)C)NC(=O)[C@H](CC(N)=O)NC(=O)[C@@H](NC(=O)[C@@H](N)Cc1ccc(O)cc1)[C@@H](C)CC)C(=O)N[C@@H](Cc1ccc(O)cc1)C(=O)N[C@@H](CCCN=C(N)N)C(=O)N[C@@H](CC(C)C)C(=O)N[C@@H](CCCN=C(N)N)C(=O)N[C@@H](Cc1ccc(O)cc1)C(N)=O |
| -1.9 | -5% | CCCCC[C@H](O)/C=C/C=C/C/C=C\CCCC(=O)O |
| -3.2 | -11% | COc1cccc(-c2nc(NCc3cnc(C)cn3)c3ccccc3n2)c1 |
| -1.7 | ? | Cc1cc(=O)oc2cc(NC(=O)CC(N)C(=O)O)ccc12 (stereo unspecified) |
| -0.6[11.7 µM] | -5% | COc1ccc(-c2nc3c(c4c2C[C@H](c2ccccc2)OC4)CN(S(=O)(=O)c2ccc4c(c2)OCCN4C)CC3)c(C)c1 |
| -0.8 | 7% | CCCCCCCCCCCCCCSCC(=O)O |
| 4.9 | 0% | COC(=O)[C@@]1(Cc2ccc(F)cc2)[C@H]2c3cc(C(=O)N(C)C)n(Cc4ccc(O)c(OC)c4)c3C[C@H]2CN1C(=O)c1ccccc1 |
| 0.4 | 3% | COc1cc2c(cc1OC)[C@H](C)N(CC1C(=O)O[C@@H]3C[C@@]4(C)CCC[C@H](C)[C@@]45OC5[C@H]13)CC2 (stereo partly specified) |
| 4.8[11.7 µM] | 16% | CCOC(=O)CCN1C(=O)[C@H]2[C@H]3[C@H](O)[C@H](O)C/C(=N/OCc4ccccc4)[C@H]3CC[C@@H]2C1=O |
| 2.3 | 4% | COc1cccc(-c2cncnc2NCc2cccs2)c1 |
| -1.4 | 2% | CCCn1c(-c2ccc(F)cc2)nc2c(N3CCN(CCC(=O)OCC)CC3)nc(C)nc21 |
| ? | 5% | CCCCCCCCCCCCCCCCCC(=O)OCC(O)CO (stereo unspecified) |
| ? | 50µM* | COc1ccc2c(c1OC)C(Cc1ccccc1)N1CCc3cc4c(cc3C1=C2)OCO4 (stereo unspecified) |
| -2.1 | 25% | CNC1CC(N)[C@H](O)[C@@H](O[C@@H]2OC(CO)C3OC4(OC(C(N)CO)C(O)C(O)C4O)O[C@@H]3[C@H]2O)C1O (stereo partly specified) |
| -3.0 | -30% | COc1ccc(-c2coc3c(OC)c(OC)cc(O)c3c2=O)cc1 |
| -2.6[11.7 µM] | 14% | CC(C)=CCC/C(C)=C/CO/N=C1/C[C@@H](O)[C@@H](O)[C@@H]2[C@@H]3C(=O)N([C@@H](C)c4ccccc4)C(=O)[C@H]3CC[C@H]12 |
| 0.5 | 3% | O=C(Nc1ccc(Br)cc1)c1cc(Br)c(Br)s1 |
| 1.4[24.8 µM] | 11% | CN1C(=O)C[C@H](c2ccccc2)C1=O |
| 9.5 | -5% | C[C@@H]1C[C@](C)(C(=O)c2ccco2)C=C1c1ccco1 |
| ? | 0% | C=CCc1cccc(/C=N/NC(=O)CN2CCN(Cc3ccccc3)CC2)c1O |
| -1.9 | 16% | CN1CCN(c2ncnc3ccc(-c4ccc5c(c4)OCO5)cc23)CC1 |
| 3.5 | 30% | Cc1cc(C)c(N(Cc2ccccc2)S(=O)(=O)c2ccc(OCCNC(=O)c3cc4ccccc4o3)cc2)c(C(=O)NO)c1 |
| 0.6 | -6% | Cc1cc(CNC(=O)[C@]2(C(F)(F)F)C[C@H](CCC3CCCCC3)CCCO2)nn1C |
| 1.6 | 27% | Cc1nc(NS(=O)(=O)c2ccc(N)cc2)nc(C)c1Br |

The results go on.
| Menin MLL FP FL | Sfp inh | Molecule |
| --- | --- | --- |
| -7.7 | -18% | CCC(Nc1ncnc2ccc(-c3c(C)noc3C)cc12)c1ccccc1 (stereo unspecified) |
| 1.0 | 9%&20% | CCn1cc(C(=O)O)c(=O)c2cnc(N3CCCC3)nc21 |
| -1.2[11.7 µM] | -2% | CC(C)(C)N1C(=O)[C@H]2[C@H]3[C@H](O)[C@H](O)C/C(=N/OC[C@@H](O)COCc4ccco4)[C@@H]3CC[C@@H]2C1=O |
| 5.3 | 3% | CCC[C@H](NC(=O)[C@H](CC(C)C)N(C)C(=O)CNC(=O)[C@@H](NC(=O)[C@H](Cc1ccccc1)NC(=O)[C@H](CCCCN)NC(=O)[C@@H](N)CC(=O)O)C(C)C)C(N)=O |

High-throughput results (PubChem BioAssay)

These rows are one share of the data; rates above refer to the full screens.
